# ClpP mod: qHTS Assay for Activators of ClpP; ATP-dependent Clp protease proteolytic subunit (Bacillus subtilis (strain 168)), P80244; purified B. subtilis ClpP, FRET peptide cleavage, 20 min; Potency, µM (top dose mostly 57.5 µM), without a hit: at the top dose activity change, negative = active; actives 1.9% (n = 340,000); AID 651965, 2013; active = well fitted falling curve with a large enough effect; inconclusive = small, poorly fitted or top-dose-only effect; inactive = no such curve, though single readings can be large or run the other way; further: potency means the concentration at half of the fitted maximal effect; the source files actives as falling curves though it sought activators and does not explain the sign; nearly all actives have a fitted effect of over 65% in size; many hits overshoot -100%
# Target sequence (P80244 whole entry, looked up): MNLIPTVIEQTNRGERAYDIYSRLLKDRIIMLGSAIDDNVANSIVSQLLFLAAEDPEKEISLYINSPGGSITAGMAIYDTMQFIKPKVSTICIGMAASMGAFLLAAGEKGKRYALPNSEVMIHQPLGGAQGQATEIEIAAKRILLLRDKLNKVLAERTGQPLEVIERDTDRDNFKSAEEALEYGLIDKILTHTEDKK
#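 FRET quenching reversal measured ClpP activation: 10 microg/mL B. subtilis ClpP at pH 8 with the FRET-FV decapeptide, read at 430 nm after 320 nm excitation. The 20-min minus 0-min signal was scaled between DMSO/no-enzyme wells and ADEP (5.8 microM final).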
# D2 PAM: potentiates the human D2 dopamine receptor allosterically; P14416; DiscoveRx D2 beta-arrestin cells, luminescence, 90 min; 100% = 57 uM dopamine signal; potentiation, % (test concentration not listed); actives 0.23% (n = 360,000); AID 624464; active = potentiation of 50% or more; inconclusive = 30% to 50%; inactive = 30% or less;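 further: compound concentration not given in the record; tested on top of an EC20 dose of dopamine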
# Target sequence (P14416 whole entry, looked up): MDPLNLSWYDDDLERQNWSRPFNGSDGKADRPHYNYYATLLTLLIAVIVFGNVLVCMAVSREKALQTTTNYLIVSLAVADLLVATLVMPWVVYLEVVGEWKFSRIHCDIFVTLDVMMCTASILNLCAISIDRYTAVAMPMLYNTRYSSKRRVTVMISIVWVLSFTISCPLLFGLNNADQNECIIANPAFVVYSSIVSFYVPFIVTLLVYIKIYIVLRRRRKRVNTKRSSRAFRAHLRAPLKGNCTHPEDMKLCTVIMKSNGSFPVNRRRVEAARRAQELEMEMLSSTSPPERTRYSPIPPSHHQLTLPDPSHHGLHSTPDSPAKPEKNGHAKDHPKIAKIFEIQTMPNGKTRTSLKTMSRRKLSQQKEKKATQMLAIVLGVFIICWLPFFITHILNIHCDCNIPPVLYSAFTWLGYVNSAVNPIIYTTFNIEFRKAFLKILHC
#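 PathHunter D2 cells, attached overnight at 37 deg C, received compound in DMSO plus dopamine at EC20 (50 nM final) for 90 min at 37 deg C. Beta-arrestin recruitment was read as luminescence after 1 h with detection reagent at ambient temperature.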
# Menin-MLL FL inh: displaces fluorescein MLL peptide from human menin. Fluorescence polarization, fluorescein-MLL peptide displacement from menin. FP activity change, % at 61.4 µM. 290,000 tested, under 10 active; inconclusive = falling polarisation curve, or a change in total fluorescence; inactive = total fluorescence flat and polarisation flat or rising; no compound was filed as active; the % refers to the polarisation; negative = inhibition;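 further: % of control where 0% means no effect; inhibitors lower the polarisation; unlabelled MLL peptide was the positive control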
# Sfp inh: blocks B. subtilis Sfp PPTase activity. Q9F4F7. Biochemical Sfp PPTase activity, qHTS. Potency, µM, without a hit: max response, negative = inhibition, actives largely listed as inhibitors. actives 3.5% (n = 310,000). AID 1490; active means well fitted inhibition curve with a large enough effect; inconclusive means small, poorly fitted or top-dose-only effect, or another doubt; inactive means no such curve, though single readings can be large or run the other way;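 further: the enzyme is Sfp with the accession as filed and its product quenches rhodamine fluorescence; potency means the concentration at half of the fitted maximal effect; 0% = enzyme reaction without inhibitor and -100% = no enzyme wells; top concentration of the series not given in the record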
#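 Reaction rates are the 30-min fluorescence difference (ex 525, em 598 nm) in wells containing 15 nM Sfp, 5 uM rhodamine-CoA and 12.5 uM BHQ-2-YbbR at pH 7.6 with 10 mM MgCl2.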
# TRPV1 PAM: human TRPV1 potentiation; Q8NER1; TRPV1-expressing cells, Fluo-8 calcium influx, capsaicin EC20 potentiation; host cell line not named in the record; control for the full effect not named in the record; potentiation, % at 8.33 µM; actives 0.02% (n = 320,000); AID 540277; active means potentiation above 80%; inconclusive means 30% to 80%; inactive means below 30%; further: 0% is about no effect
#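 TRPV1-expressing cells were cultured overnight at 35.5C and loaded with Fluo-8 calcium dye for 40 to 90 min at room temperature. After a 10 s baseline, compound was added and calcium influx was read kinetically for 3 min (ex 480/em 520 nm).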
# gsp agonist: agonists of gsp mutant (McCune-Albright syndrome); actives 0.13% (n = 340,000); gsp mutant cells, cAMP HTRF, 30 min; control for the full effect not named in the record; Potency, µM (titrated, usually from 76.9 µM), for inactives: at the highest dose activation (cAMP increase), usual class: activators; active = well fitted activation curve with a large enough effect; inconclusive = small, poorly fitted or top-dose-only effect, or another doubt; inactive = no such curve, though single readings can be large or run the other way; cell line not stated here;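 further: phosphodiesterase inhibitor Ro 20-1724 added with compounds to block cAMP breakdown; potency means the concentration at half of the fitted maximal effect; nearly all actives have a fitted effect of over 60% in size; about a fifth of the inactives were tested at one dose only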
#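 Cells in DMEM/10% FBS with G418 were pretreated with compounds in DMSO plus […] (300 uM stock) for 30 min at 37C. cAMP was measured by HTRF (cAMP-d2 plus anti-cAMP antibody-K) after 30 min at room temperature.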
# gsp antagonist: gsp mutant antagonism; actives 0.4% (n = 340,000); Potency, µM (doses to about 76.9 µM), for the others: top-dose activity change, negative = inhibition, hits mostly inhibitors; gsp-mutant cells, cAMP HTRF, 30 min; control for the full effect not named in the record; active = falling curve of any shape with a large fitted effect; inconclusive = falling curve, mostly with a smaller effect; inactive = flat or rising curve; cell line not stated here;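 further: intracellular cAMP measured with PDE inhibitor Ro 20-1724 present during compound exposure; potency means the concentration at half of the fitted maximal effect; on the % scale 0 is the no-effect control and ±100 the full control effect; nearly all actives have a fitted effect of over 65% in size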
#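 Cells in G418 medium, seeded 16-24 h, 37C; buffer exchange to DPBS + 1 mM CaCl2, 0.5 mM MgCl2, 0.05% BSA; cpds in DMSO + […] (300 uM stock), 30 min 37C; HTRF cAMP detection.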
# The depositor's hits bear a star; ? = inconclusive; . = not tested or not shown; [ ] = remark or other dose.
(1) CCOc1ccc(-n2c(SCC)nc3c(c2=O)SCC3)cc1
(2) COc1ccc(CCNC(=O)CS(=O)Cc2nc(-c3cccs3)oc2C)cc1OC (stereo unspecified)
(3) CCOC(=O)Nc1ccc2c(c1)N(C(=O)CN(CC)CC)c1ccccc1C=C2
(4) COc1ccc(C(C(=O)NC2CCCCC2)N(C(=O)Cc2c[nH]c3ccccc23)c2ccccc2)cc1OC (stereo unspecified)
(5) N=c1n(Cc2ccc(Cl)cc2)c2ccccc2n1CC(O)c1ccco1 (stereo unspecified)
(6) O=C(CSc1cccc2cccc(Cl)c12)NC1=NCCS1
(7) Cc1nn(C(C)C(=O)NCCc2cccs2)c(=O)c2nn(-c3ccccc3)c(C)c12 (stereo unspecified)
(8) COc1ccc(NC(=O)Cn2nnc(C(=O)NCc3ccc(C)cc3)c2N)cc1OC

assay / compound	1	2	3	4	5	6	7	8
ClpP mod	-5.1%	-3.5%	-8.9%	1.8%	-6.7%	.	-2.5%	0.2%
D2 PAM	-1	10	-49	-18	-15	1	-7	-3
Menin-MLL FL inh	0.7	-1.1	-0.6	-4.6	0.5	-0.1	.	-3.6
Sfp inh	16%	-11%	21%	9%	0%	14%	12%	-1%
TRPV1 PAM	-2	23	5	3	19	-14	8	27
gsp agonist	4%	35%	-52%[inhibitor]	-8%	-38%[inhibitor]	-5%[15.4 µM]	?	11%
gsp antagonist	-2%	-7%	0%	?	3%	5%	0%	13%

(9) CN1CCC(N(C)C(=O)CNC(=O)c2ccc(C(C)(C)C)cc2)CC1
(10) Cc1cccc(N(C(=O)CNC(=O)c2ccco2)C(C(=O)NC2CCCC2)c2ccncc2)c1 (stereo unspecified)
(11) O=C(CCc1ccccc1)N1CCN(c2ccccc2F)CC1
(12) O=C(COc1ccccc1)Nc1ccc(S(=O)(=O)Nc2ccccn2)cc1
(13) COCCn1cnc2c1c(=O)n(CC(=O)NN)c(=O)n2Cc1ccccc1
(14) CC(=O)N1CCN(S(=O)(=O)c2cccc(C(=O)NC3CC3)c2)CC1
(15) CC(C)CC(=O)Nc1cccc(NC(=O)c2ccccc2Cl)c1
(16) Cc1c(Cl)cccc1NC(=O)Nc1ccn(C)n1

assay / compound	9	10	11	12	13	14	15	16
ClpP mod	.	0.3%	-1.6%	.	-4.1%	-4.0%	1.2%	0.2%
D2 PAM	-16	-10	-10	-3	-3	-13	5	10
Menin-MLL FL inh	0.5	0.0	1.2	0.3	-3.8	.	2.1	1.4
Sfp inh	14%	8%	20%	2%	14%	.	8%	-1%
TRPV1 PAM	?	20	-15	28	15	4	-8	9
gsp agonist	13%[15.4 µM]	7%[15.4 µM]	0%	?	?	2%	3%	-9%
gsp antagonist	-9%	0%	5%	-10%	6%	-1%	-11%	-11%

# Five compounds out of the list above, arranged by the value under Sfp inh, highest first.
nr	Molecule	D2 PAM	Menin-MLL FL inh	Sfp inh	gsp agonist
11	O=C(CCc1ccccc1)N1CCN(c2ccccc2F)CC1	-10	1.2	20%	0%
13	COCCn1cnc2c1c(=O)n(CC(=O)NN)c(=O)n2Cc1ccccc1	-3	-3.8	14%	?
15	CC(C)CC(=O)Nc1cccc(NC(=O)c2ccccc2Cl)c1	5	2.1	8%	3%
12	O=C(COc1ccccc1)Nc1ccc(S(=O)(=O)Nc2ccccn2)cc1	-3	0.3	2%	?
16	Cc1c(Cl)cccc1NC(=O)Nc1ccn(C)n1	10	1.4	-1%	-9%

# (list continues)
(17) O=C(NC(=S)N1CC=CCC1)c1ccccc1
(18) Cc1ccc(C)c(C(=O)OCC(=O)Nc2cccc(S(=O)(=O)N3CCCCC3)c2)c1
(19) O=C(NNC(=O)c1ccc(F)c(S(=O)(=O)N2CCOCC2)c1)c1ccc(Br)cc1
(20) CC(C)=C1CCC(C)CC1=NNC(N)=S (stereo unspecified)
(21) CSc1ccccc1C(=O)NCCSC(C)(C)C
(22) Oc1ccc(CN2CCC(Cc3ccccc3)CC2)c2cccnc12
(23) Cc1ccc(S(=O)(=O)N2CCN(S(=O)(=O)c3ccc(C)cc3)C2c2ccccc2)cc1
(24) COc1ccc(CCNC(=O)Cc2cc(OC)c(OC)cc2[N+](=O)[O-])cc1OC

assay / compound	17	18	19	20	21	22	23	24
ClpP mod	-1.5%	-0.2%	-0.6%	1.9%	3.6%	.	-0.4%	-3.9%
D2 PAM	-11	-1	2	2	-9	-16	-1	4
Menin-MLL FL inh	.	.	.	.	4.4	-5.4	-0.1	4.5
Sfp inh	.	.	.	.	-9%	19%	10%	13%
TRPV1 PAM	.	?	-8	.	-3	12	1	-5
gsp agonist	-31%[inhibitor]	5%	14%	-4%[15.4 µM]	?	-11%	?	-13%
gsp antagonist	.	25µM*	-4%	4%	11%	-6%	-1%	1%

(25) CCOc1cc(Cl)c(CNCCCN2CCOCC2)cc1OC
(26) O=C(NC1CCCc2c1cnn2-c1cc(F)cc(F)c1)c1cc[n+]([O-])cc1 (stereo unspecified)
(27) CC(C)(C)c1ccc(S(=O)(=O)N2CCN(C(=O)C3=COCCO3)CC2)cc1
(28) CC1CCN(C(=O)c2[nH]cnc2C(=O)Nc2ccon2)CC1
(29) Cn1cccc1C1CCCN1CC(=O)Nc1ccc(F)c(F)c1F (stereo unspecified)
(30) CC1(C)CC(=O)c2sc(N)nc2C1
(31) Cc1ccc(S(=O)(=O)NCC(=O)NCC(=O)OCC(=O)N2CC(=O)Nc3ccccc32)cc1C
(32) Cc1ccc(CN2CCC(n3nccc3NC(=O)CCOc3ccccc3)CC2)o1

assay / compound	25	26	27	28	29	30	31	32
ClpP mod	0.5%	0.3%	-0.1%	-0.5%	-4.3%	-1.3%	1.3%	-0.9%
D2 PAM	-2	-7	4	-10	-2	-11	-7	-28
Menin-MLL FL inh	-3.2	13	.	.	.	4.6	?	-0.5
Sfp inh	-4%	7%	.	.	.	8%	19%	7%
TRPV1 PAM	-5	-20	-5	1	.	-6	-4	6
gsp agonist	-24%[15.4 µM]	-12%	-57%[inhibitor]	5%	-17%	-28%	1%	18%
gsp antagonist	9%	0%	?	7%	-15%	3%	4%	-7%

(33) COc1ccccc1-c1csc(NC(=O)c2cc(-c3cccs3)nc3ccccc23)n1
(34) CCCNC(=O)Nc1cc(OCC)c(N2CCOCC2)cc1OCC
(35) Cc1onc(-c2ccccc2)c1C(=O)c1ccccc1
(36) NC(=O)NC(=O)COC(=O)c1cccnc1Nc1ccccc1F
(37) CCN1CCN(S(=O)(=O)c2ccc(Cl)c(C(=O)N(CC(C)C)C3CCS(=O)(=O)C3)c2)CC1 (stereo unspecified)
(38) COc1ccc(N=Cc2c(C)[nH][nH]c2=O)cc1
(39) O=C(OC1C2CCC1C1CN(CCc3ccccc3)CC12)c1ccccc1 (stereo unspecified)
(40) O=C(COC(=O)c1ccc(-n2cnnn2)cc1)c1ccc(Br)cc1

assay / compound	33	34	35	36	37	38	39	40
ClpP mod	2.9%	-18%	.	3.7%	1.4%	1.6%	3.3%	-1.7%
D2 PAM	-22	5	-6	-2	3	-3	-20	1
Menin-MLL FL inh	6.6	2.5	3.3	0.2	.	2.3	1.3	.
Sfp inh	12%	-8%	12%	-4%	.	7%	2%	.
TRPV1 PAM	-13	6	-6	-14	.	9	-17	0
gsp agonist	-39%[inhibitor]	5%	-2%[15.4 µM]	18%	-28%	-49%[inhibitor]	-18%	6%[15.4 µM]
gsp antagonist	15%	-11%	4%	12%	-18%	-1%	11%	4%

# Some of the entries so far, as labelled records:
37: CCN1CCN(S(=O)(=O)c2ccc(Cl)c(C(=O)N(CC(C)C)C3CCS(=O)(=O)C3)c2)CC1 (stereo unspecified)
- ClpP mod = 1.4%
- D2 PAM = 3
- Menin-MLL FL inh = .
- Sfp inh = .
- TRPV1 PAM = .
- gsp agonist = -28%
- gsp antagonist = -18%

40: O=C(COC(=O)c1ccc(-n2cnnn2)cc1)c1ccc(Br)cc1
- ClpP mod = -1.7%
- D2 PAM = 1
- Menin-MLL FL inh = .
- Sfp inh = .
- TRPV1 PAM = 0
- gsp agonist = 6%[15.4 µM]
- gsp antagonist = 4%

# (cont.)
(41) O=C(Nc1ccc(O)cc1C(=O)O)c1ccc2c(c1)C(=O)N(Cc1ccco1)C2=O
(42) COc1ccccc1C1NC(=O)CCC1[N+](=O)[O-] (stereo unspecified)
(43) COc1ccccc1C(=O)N1CCNC(=O)C1CC(=O)Nc1ccc(Cl)cc1 (stereo unspecified)
(44) CC1CCCC/C1=N\NC(=S)Nc1ccccc1 (stereo unspecified)
(45) Cc1ccc(OCC(O)Cn2c3ccccc3c3ccccc32)cc1 (stereo unspecified)
(46) CNc1ccncc1S(=O)(=O)NC
(47) O=C(Nc1cccc2ncccc12)c1ccc2c(c1)OCCO2
(48) COc1ccc(C2OC[C@H]3O[C@H](O)[C@H](NC(C)=O)[C@@H](O)[C@@H]3O2)cc1 (stereo partly specified)

assay / compound	41	42	43	44	45	46	47	48
ClpP mod	2.3%	-2.3%	-6.8%	0.7%	-14%	1.3%	1.1%	.
D2 PAM	-7	-1	-30	-11	-12	-14	-28	8
Menin-MLL FL inh	4.2	-4.1	1.5	-4.1	5.6	0.6	3.9	-0.5
Sfp inh	0%	5%	8%	?	6%	-11%	10%	15%
TRPV1 PAM	-14	15	0	9	-16	3	25	-5
gsp agonist	-13%	17%[15.4 µM]	11%	15%	-52%[inhibitor]	-27%	-43%[inhibitor]	-21%
gsp antagonist	32µM*	-7%	8%	-9%	5%	7%	16%	6%

# Filtered by structure: the entries above containing an aryl thioether with sulfur outside any ring.
(1) CCOc1ccc(-n2c(SCC)nc3c(c2=O)SCC3)cc1
(6) O=C(CSc1cccc2cccc(Cl)c12)NC1=NCCS1
(21) CSc1ccccc1C(=O)NCCSC(C)(C)C

assay / compound	1	6	21
ClpP mod	-5.1%	.	3.6%
D2 PAM	-1	1	-9
Menin-MLL FL inh	0.7	-0.1	4.4
Sfp inh	16%	14%	-9%
TRPV1 PAM	-2	-14	-3
gsp agonist	4%	-5%[15.4 µM]	?
gsp antagonist	-2%	5%	11%
